Screens (PubChem BioAssay)
H5N1 CPE: MDCK cell protection from H5N1 avian flu | cytopathic effect, luminescence, 72 h; hits give high values; no value below 0 was filed and about half of the inactive calls have no number; reference of the scale not given here | inhibition, % at 50 µM | 96,000 compounds, 0.07% hits; in the data active means inhibition above about 25%
Starred values were filed as active, the others as inactive; i = inactive. Some of the compounds tested; rates above refer to the full screens.

canonical_smiles,H5N1 CPE
CCCCOc1ccccc1NC(=O)Cn1c(-c2nonc2N)nc2ccccc21,0.3
CCOc1ccc(NC(=O)[C@@H](NC(=O)c2ccccc2)[C@@H](C)CC)cc1,i
Cc1ccc(NC(=O)C2CC(=O)NC(N3CCc4ccccc43)=N2)cc1 (stereo not drawn),0.0
Cc1nnc(NC(=O)CSc2nccn2-c2cccc(C)c2C)s1,i
Cc1c(NC(=O)CSc2ccccn2)c(=O)n(-c2ccccc2)n1C,i
O=P(c1ccccc1)(c1nc2ccccc2s1)N1CCOCC1 (stereo not drawn),0.2
CCOc1ccc(S(=O)(=O)Nc2ccc(C(=O)N/N=C(\C)c3ccc(-n4ccnc4)cc3)cc2)cc1,i
Cc1ccc(N(C(=O)c2ccncc2)C2C=CS(=O)(=O)C2)cc1 (stereo not drawn),0.8
Cc1ccc(-c2nc3c(cnn3-c3ccccc3)c(=O)o2)cc1,i
Cc1cc(C)n(-c2ccc(C(=O)OC(C)C)cc2)n1,i
CCOC(=O)c1cc(-c2ccc(Cl)cc2)nc2onc(C)c12,i
CCCCCc1c(C)nc(Nc2ccccc2)[nH]c1=O,2.3
Cc1ccc2nc(SCC(=O)c3ccc4c(c3)OCO4)[nH]c2c1,i
O=C(O)CC1Sc2nc3ccccc3n2C1=O (stereo not drawn),0.4
CCOC(=O)N1CCC(Nc2c(NCCCN(C)Cc3ccccc3)c(=O)c2=O)CC1,0.5
CCC(C)N(C(=O)CSc1nc(-c2ccccc2)cs1)C1CCS(=O)(=O)C1 (stereo not drawn),1.4
Cc1cc(NC(=O)c2ccc(C)s2)n(-c2ccccc2)n1,0.1
Cc1cccc(N2CCN(C(=O)CN3CCOc4ccccc43)CC2C)c1 (stereo not drawn),0.8
CCN(c1ccccc1)S(=O)(=O)c1ccc(C(=O)Nc2nccs2)cc1,i
O=C(c1cn(-c2ccccc2)nc1-c1cccs1)N1CCOCC1,0.8
Cc1ccc(-c2cc(C(=O)NCCCN3CCOCC3)no2)cc1,0.1
O=C(O)CCCCCN1C(=O)c2ccc(C(=O)O)cc2C1=O,i
CCn1c(N2CCN(C(=O)Nc3ccc(F)cc3)CC2)nc2ccccc21,i
O=C(NCc1cccc(Cl)c1)c1cccc(C(F)(F)F)c1,i

Part of the list above in order of molar mass, lowest first:
canonical_smiles,H5N1 CPE
Cc1cc(NC(=O)c2ccc(C)s2)n(-c2ccccc2)n1,0.1
O=C(NCc1cccc(Cl)c1)c1cccc(C(F)(F)F)c1,i
O=C(c1cn(-c2ccccc2)nc1-c1cccs1)N1CCOCC1,0.8

More records.
canonical_smiles,H5N1 CPE
CCC(=O)Nc1cccc(C(=O)/C=C/c2cc(Br)ccc2OC)c1,i
C=CCn1c(SCc2cccc(C#N)c2)nnc1-c1ccccc1O,1.3
O=C(CSc1ncn[nH]1)NC12CC3CC(CC(C3)C1)C2,1.4
Cc1c(C(=O)N(C)C)sc2nc(-c3ccccn3)[nH]c(=O)c12,2.3
O=C(CNC(=O)c1cccs1)NCC(=O)OCc1cccc(Cl)c1,0.8
Cc1occc1C(=O)Nc1nnc(C2CCCCC2)s1,i
CN(C)S(=O)(=O)c1cccc(NC(=O)COC(=O)CCc2nc3ccccc3s2)c1,0.5
Cc1cc(C(=O)CSc2nnnn2C)c(C)n1-c1cccc(F)c1,i
COc1ccc(C2C(=O)N(CCc3ccccc3)CC(=O)N2C2CCCCC2)cc1 (stereo not drawn),i
O=C(COc1ccc(CO)cc1)Nc1ccc(F)cc1,i
CC1CC(C)CN(c2ccc(C(=O)OCC(=O)NC3CCCc4ccccc43)cc2[N+](=O)[O-])C1 (stereo not drawn),0.5
CC(NC(=O)c1ccco1)C(c1cccs1)N1CCOCC1 (stereo not drawn),1.8
CCCOc1ccc(OCCSc2ncccn2)cc1,i
CCCOc1c(OC)cccc1C1CC(=O)Nc2cc3c(cc21)OCCO3 (stereo not drawn),2.4
CCCNC(=O)N1CCC(C(=O)c2ccc(F)cc2)CC1,i
COC(=O)c1c(C)c(C)nc(N)c1C#N,1.8
Cc1cc(SCC(=O)Nc2ccccc2C)nc(C)n1,0.1
Cc1ccc(-n2c3c(c(=O)[nH]c2=O)C(NS(=O)(=O)c2ccc(C)cc2)(C(F)(F)F)C(=O)N3)cc1 (stereo not drawn),1.4
COc1cc(OC)cc(C(=O)Nc2ccc(-c3nc4ccccc4o3)cc2)c1,i
Cc1nnc(NC(=O)CSc2nc(C3CCCCC3)nc3ccccc23)s1,i
Cc1cccc(C(=O)Nc2ccc(Cl)cc2C(=O)c2ccccc2)c1,0.5
CCOC(=O)Nc1ccc2c(c1)OCO2,i
CCn1c(=O)cc(OCC(=O)NCCCN2CCC(C)CC2)c2ccccc21,1.1
C=CCC1c2cccc(C(=O)O)c2C(=O)N1c1ccc(F)cc1 (stereo not drawn),0.7
COc1ccc(C(=O)CCC(=O)O)cc1,0.0
CCOc1ccc2oc(-c3ccccc3)c(C(=O)N3CCN(C)CC3)c2c1,i
COc1ccc(C(=O)c2c[nH]c(C(=O)NCc3ccco3)c2)cc1,i
C=CCNC(=O)CSc1nc2cc(C(=O)OCC)ccc2n1CC,1.6
C=CCn1c(-c2cccn(Cc3ccc(Cl)cc3Cl)c2=O)n[nH]c1=S,i
COc1ccc(NC(=O)c2c(Nc3ccccc3)sc(C(=O)c3ccc(F)cc3)c2N)cc1,i
CCCCN(CC)CCNc1c(NC2CCN(C(=O)OCC)CC2)c(=O)c1=O,1.1
CCOc1ccc(C2C(C#N)=C(C)NC3=C2C(=O)c2ccccc23)cc1 (stereo not drawn),i
c1ccc2c(CNC3CCCCC3)c[nH]c2c1,i
Cc1ccccc1OCC(O)Cn1c(NCc2ccco2)nc2c1c(=O)n(C)c(=O)n2C (stereo not drawn),i
Cc1onc(-c2ccccc2)c1C(=O)NCCc1ccc(S(N)(=O)=O)cc1,i
CCSc1ccccc1C(=O)Nc1nncs1,0.4
O=C1c2cnccc2CN1Cc1ccccc1,0.5
CCC(Oc1ccccc1)C(=O)Nc1ccc(S(=O)(=O)NCC2CCCO2)cc1 (stereo not drawn),i
O=C(C1Cc2ccccc2O1)N1CCCCC1 (stereo not drawn),0.3
COc1cccc(OCC(O)CN2CCOCC2)c1 (stereo not drawn),0.1
NC(=O)C1(N2CCCCC2)CCN(C(=O)c2ccc(C#Cc3ccccc3)o2)CC1,i
Cc1ccc(NC(=O)CSc2nnc(Cn3cnc4ccccc43)o2)c(C)c1,i
COc1ccc(NC(=O)CS(=O)CC(=O)Nc2ccc(OC)c(OC)c2)cc1 (stereo not drawn),i
COn1c(-c2ccccc2)nc2c1CCc1c-2no[n+]1[O-],1.1
COC(=O)CSc1nnc(SCc2ccccc2)s1,i
COc1ccc(CCNC(=O)c2cccnc2)cc1OC,i
CCCCn1c(SCC(=O)NCc2ccco2)nnc1-c1ccoc1C,i
CCOC(=O)C1=C(C)Nc2ncnn2C1c1cc(OC)ccc1OC (stereo not drawn),0.5
O=C(Nc1nnc(-c2ccccc2Cl)o1)c1ccco1,3.3
CCOc1cc(/C=N/O)ccc1OS(=O)(=O)c1ccc(C)cc1,0.4
CCOc1cc(/C=N/NS(=O)(=O)c2ccccc2)ccc1OS(=O)(=O)c1ccc(C)cc1,i
COc1ccc(C)cc1N(CC(=O)Nc1cccc(N(C)S(C)(=O)=O)c1)S(C)(=O)=O,2.7
CCOC(=O)N1CCN(CC(=O)c2c(C)[nH]c3ccccc23)CC1,0.6
COc1ccc(CNC(=O)C(=O)NCC2CCCO2)cc1 (stereo not drawn),i
Nc1c(NCc2ccccc2)c(=O)[nH]c(=O)n1Cc1ccccc1,i
O=C1C2CCCN2C(c2ccc(F)cc2)N1c1cccc(Cl)c1 (stereo not drawn),0.7

Further structures
canonical_smiles,H5N1 CPE
O=c1cc(COn2nnc3ccc(C(F)(F)F)cc32)nc2sccn12,1.1
Cc1ccc(C(N)=S)c(C)c1,i
COc1ccc(C(=O)N2CCN(C3CCC(c4ccccc4)CC3)CC2)cc1OC (stereo not drawn),i
O=c1c2ccccc2nnn1CSc1nnc(-c2cccnc2)n1-c1ccccc1F,2.3
CCN1CCN(C(=O)c2cc3nc(-c4ccccc4)cc(C(F)(F)F)n3n2)CC1,i
COc1cc(N=c2ssnc2Cl)c(OC)cc1Cl,0.5
Cc1cccc(N2CCN(C(=O)Cc3c(C(=O)O)[nH]c4ccc(Cl)cc34)CC2)c1C,1.2
CCCCNc1nc(CC(C)=O)ns1,i
Cc1nc(CCNC(=O)COc2ccccc2)cs1,i
CCOc1ccc(-n2c(COc3ccc(C)cc3)nnc2SCC(N)=O)cc1,0.4
CC(C)(C)NC(=O)Nc1ccccc1C(N)=O,1.5
Cc1ccc(C)c(NC(=O)c2sc(Cl)nc2-c2ccccc2)c1,i
O=S(=O)(Cc1cc(-c2ccc(Cl)cc2)no1)c1ccccc1,0.0
CCOC(=O)c1c(-c2ccc(C)s2)csc1NC(=O)c1cccs1,i
CC(=O)Nc1ccc(N2C(C(C)=O)=NN(c3ccccc3)C2c2cccs2)cc1 (stereo not drawn),i
O=c1c2c(nc3c(-c4cccc5ccccc45)c[nH]n13)CCC2,5.2
CC1(C)NC(=O)N(CCCOc2ccccc2Br)C1=O,i
CCOC(=O)C(C)Sc1nnc(-c2c[nH]c3ccccc23)n1C (stereo not drawn),1.2
CN(C)CCn1c(=O)n(Cc2ccco2)c(=O)c2c3c(sc21)CCCCC3,i
Cn1c(=O)cc(SCC(=O)N2CCC3(CC2)OCCO3)c2ccccc21,0.4
CCOCCCNc1nc2c(c(=O)n(C)c(=O)n2C)n1CCCc1ccccc1,2.9
O=C(CN1CCC(O)CC1)N1c2ccccc2C=Cc2ccccc21,i
O=C(c1ccc(O)cc1)c1ccc(C(=O)O)c(C(=O)O)c1,i
CC(C)C(=O)Nc1cccc(C(=O)Nc2ccc3c(c2)OCO3)c1,1.0
CN(C)CCOC(=O)c1cn(Cc2ccccc2)c2ccccc12,i
CCOC(=O)C1(S(=O)(=O)c2ccc(Cl)cc2)CCN(Cc2ccccc2)CC1,i
O=S(=O)(NC1CCCCC1NCc1ccco1)c1ccc(Cl)cc1 (stereo not drawn),i
Cn1c(NCCCN2CCOCC2)nc2c1c(=O)n(Cc1ccc(Cl)cc1Cl)c(=O)n2C,i
CCOC(=O)C(NC(=O)c1ccccc1)=C1C=C(C)OC(C)=C1,1.0
COc1cccc(NC(=O)Cn2c(SCC(=O)N3CCOCC3)nc3ccccc32)c1,0.3
Cn1c(/C(C#N)=C2/CCCCCN2)nc2ccccc21,1.1
COc1ccc(NC(=O)CSc2nnc(Cn3c(=O)sc4ccccc43)n2C)cc1,i

Pulled by structure from above, three records:
canonical_smiles,H5N1 CPE
Cn1c(/C(C#N)=C2/CCCCCN2)nc2ccccc21,1.1
COc1cccc(NC(=O)Cn2c(SCC(=O)N3CCOCC3)nc3ccccc32)c1,0.3
COc1ccc(NC(=O)CSc2nnc(Cn3c(=O)sc4ccccc43)n2C)cc1,i

(listing goes on)
canonical_smiles,H5N1 CPE
COc1ccc2c(c1)-c1c(sn(-c3ccc(OC)c(OC)c3)c1=S)C(C)(C)N2,i
Cn1cccc1C(=O)OCc1cc(Cl)cc2c1OCOC2,i
CCc1c(C)nc(N)n2c(SCC(=O)Nc3ccccc3OC)nnc12,1.5
Cc1ccc(-n2c(O)c(C=NCc3cccnc3)c(=O)[nH]c2=O)cc1C,i
Cc1cc(NS(=O)(=O)c2ccc(NC(=O)Cc3cccs3)cc2)no1,i
Cc1noc(C)c1C(=O)NCc1ccco1,0.7
CCCCn1c(-c2csc3ccccc23)n[nH]c1=S,0.4
Cc1ccccc1Nc1nnc(SCC(=O)NC(=O)NCc2ccco2)s1,1.5
O=C(Cn1cc2c(n1)CCCCC2)NC1CCN(Cc2ccccc2)CC1,i
Cc1nn(Cc2cccc(C(=O)Nc3ccn(Cc4c(F)c(F)cc(F)c4F)n3)c2)c(C)c1[N+](=O)[O-],i
Cc1cccc(-n2c(=O)c(C#N)cc3c(=O)n4ccccc4nc32)c1,1.6
CCSc1nc2cc(OC)c(OC)cc2c(=O)n1CC,0.9
Cc1onc(-c2ccccc2Cl)c1C(=O)Nc1nnc(Cc2ccc(Cl)cc2)s1,0.9
c1ccc(CCNc2nc(-c3cccnc3)cs2)cc1,1.7
O=C(C[n+]1ccc(C(=O)N/N=C/c2ccc(O)cc2)cc1)c1ccccc1,i
Cc1cc(=O)oc(C)c1C(=O)N1CCN(C)CC1,0.1
COc1ccccc1C1C(C(N)=O)=C(C)Nc2nc(-c3ccccc3Cl)nn21 (stereo not drawn),i
CC(=O)c1cc2c(cc1NS(=O)(=O)c1ccc(C)cc1)OCCO2,i
COc1ccc(CCNC(=O)CCCCn2c(=O)[nH]c3ccccc3c2=O)cc1OC,0.7
CCC(C)C(=O)Nc1nc(C)c(-c2csc(Nc3ccccc3OC)n2)s1 (stereo not drawn),i
COC(=O)c1ccc(-n2c(C)nc(=O)c(-c3ccccc3)c2C)cc1,i
CCc1c(C)c2c(C)[nH]nc2oc1=O,0.9
O=C(NCc1ccco1)[C@@H]1CSC2c3ccccc3C(=O)N21 (stereo partly drawn),5.8
Cc1sc2ncnc(OCC(=O)c3ccc(S(=O)(=O)N4CCCC4)cc3)c2c1C,1.2
CC/C(=N\NC(=O)CSCc1ccc(Cl)cc1)c1ccc2c(c1)OCCO2,i
COC(=O)c1ccc(N2CCC(C)CC2)c(N)c1,i
Cc1ccc(Cl)cc1N1CCN(C(=O)Cn2ccc3ccccc3c2=O)CC1,0.1
Cc1cccc2cc(CN(Cc3cccs3)Cc3nnnn3Cc3ccccc3)c(=O)[nH]c12,1.6
